# Source: PubChem (National Center for Advancing Translational Sciences (NCATS))
# Six1-Eya2 inh = qHTS Assay for Inhibitors of the Six1/Eya2 Interaction; AlphaScreen GST-Six1/His-Eya2 binding, biochemical; hits give low values; control for the full effect not named in the record; hit rate 0.56% among 360,000; activity change, % (no concentration beside the values); Homeobox protein SIX1 (Homo sapiens) + Protein phosphatase EYA2 (Homo sapiens), …; in the data active = activity change below about -65%; inconclusive = about -30% to -65%; inactive = above about -30%; also: % is scaled to controls: 0 for no effect and ±100 for the full control effect; compound concentration not given in the record
#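 GST-Six1 + His-Eya2 (5X stock: 250/500 nM); Tris pH 8.0, 300 mM NaCl, 0.05% BSA, 0.02% Tween 20; GSH donor/Ni acceptor beads; 1 h 37 °C dark; AlphaScreen readout.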
# D2 ag = Beta-Arrestin HTS for Positive Allosteric Modulators of the Human D2 Dopamine Receptor: Agonists; DiscoveRx PathHunter D2 beta-arrestin, luminescence, 90 min; 100% = 57 uM dopamine signal; activation, % (concentration not given with the values); hit rate 0.084% among 360,000; AID 624465, 2012; in the data active = activation above about 40%; inconclusive = about 15% to 40%; inactive = below about 15%; also: compound concentration not given in the record; the text of the record calls up to 30% inactive
# Target sequence (P14416 whole entry, looked up): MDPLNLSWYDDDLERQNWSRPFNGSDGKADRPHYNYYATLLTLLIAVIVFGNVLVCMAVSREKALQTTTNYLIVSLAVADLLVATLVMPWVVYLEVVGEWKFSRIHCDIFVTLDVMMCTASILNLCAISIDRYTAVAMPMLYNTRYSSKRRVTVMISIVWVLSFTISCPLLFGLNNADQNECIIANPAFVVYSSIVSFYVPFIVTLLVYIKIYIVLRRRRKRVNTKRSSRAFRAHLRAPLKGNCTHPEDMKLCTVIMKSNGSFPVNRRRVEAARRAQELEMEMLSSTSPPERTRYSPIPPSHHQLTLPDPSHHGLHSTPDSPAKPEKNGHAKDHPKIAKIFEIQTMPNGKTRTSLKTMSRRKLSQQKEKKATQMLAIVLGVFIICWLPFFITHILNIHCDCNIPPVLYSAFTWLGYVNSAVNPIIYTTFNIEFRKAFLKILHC
#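 Agonist mode: compounds alone added to overnight-plated D2 PathHunter cells for 90 min at 37 C, with 57 uM final dopamine (EC100) defining full response. Beta-arrestin recruitment detected by chemiluminescent reagent, read after 1 h at ambient temperature.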
# D2 PAM = Beta-Arrestin HTS for Positive Allosteric Modulators of the Human D2 Dopamine Receptor: Potentiators; D(2) dopamine receptor (Homo sapiens), P14416; DiscoveRx D2 beta-arrestin cells, luminescence, 90 min; 100% = 57 uM dopamine signal; potentiation, % (concentration not given with the values); hit rate 0.23% among 360,000; AID 624464, 2012; active = potentiation of 50% or more; inconclusive = 30% to 50%; inactive = 30% or less;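 also: compound concentration not given in the record; tested on top of an EC20 dose of dopamine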
#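 PathHunter beta-arrestin assay in DiscoveRx D2 cells. Compounds were added with an EC20 of dopamine (50 nM final) for 90 min at 37 deg C. Luminescence was read 1 h after detection reagent, with 57 uM dopamine as the EC100 control.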
# TRPML1 blocker = qHTS for Inhibitors of the Human Mucolipin Transient Receptor Potential 1 (TRPML1) | Mucolipin-1 (Homo sapiens), Q9GZU1 | TRPML1-inducible cells, Ca2+ dye fluorescence, FDSS; hits give low values; inhibition of EC80 agonist-evoked calcium signal | activity change, negative = inhibition, % (test concentration not listed) | hit rate 0.02% among 390,000 | AID 624415, 2012; in the data active means activity change below about -50%; inconclusive means about -30% to -50%; inactive means above about -30%;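 also: stimulus is agonist 54-4 at its EC80 concentration; % is scaled to controls: 0 for no effect and ±100 for the full control effect; compound concentration not given in the record; the text of the record puts the active cut at -80%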
# Target sequence (Q9GZU1 whole entry, looked up): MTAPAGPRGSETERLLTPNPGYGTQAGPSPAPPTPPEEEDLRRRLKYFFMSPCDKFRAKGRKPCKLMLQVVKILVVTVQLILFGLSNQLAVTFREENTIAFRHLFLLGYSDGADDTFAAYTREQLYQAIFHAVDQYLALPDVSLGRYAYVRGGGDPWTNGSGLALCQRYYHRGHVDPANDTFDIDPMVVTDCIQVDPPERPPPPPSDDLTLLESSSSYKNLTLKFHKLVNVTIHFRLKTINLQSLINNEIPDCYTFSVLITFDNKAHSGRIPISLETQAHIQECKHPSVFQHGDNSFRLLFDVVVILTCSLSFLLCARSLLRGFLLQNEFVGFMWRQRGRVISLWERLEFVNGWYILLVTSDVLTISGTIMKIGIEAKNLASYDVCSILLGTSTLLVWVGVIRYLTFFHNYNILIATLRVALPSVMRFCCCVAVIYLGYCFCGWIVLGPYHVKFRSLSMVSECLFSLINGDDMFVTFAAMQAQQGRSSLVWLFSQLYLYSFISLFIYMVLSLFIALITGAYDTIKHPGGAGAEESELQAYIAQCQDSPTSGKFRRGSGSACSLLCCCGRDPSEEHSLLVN
#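 Tet-induced TRPML1-DL cells loaded with Ca8 no-wash calcium dye were read kinetically on FDSS. Compound addition was followed by EC80 agonist 54-4 (4 uM final); inhibition was read over 110 s.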
# PINK1 expr mod = A Quantitative High throughput Screen to Identify Chemical Modulators of PINK1 Expression; PINK1 immunofluorescence, high-content cytometry, 24 h; Potency, µM (top dose mostly 76.6 µM), inactives show top-dose activation (PINK1 increase), hits mostly activators; hit rate 0.2% among 410,000; AID 624263, 2012; active = well fitted activation curve with a large enough effect; inconclusive = small, poorly fitted or top-dose-only effect; inactive = flat fitted curve, though single readings scatter; cell line not stated here;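 also: potency is read from the fitted curve at half-maximal effect; % of control where 0% means no effect; nearly all actives have a fitted effect of over 65% in size; a mitochondrial uncoupler was the plate control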
#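 Compound titrations (5 concentrations, 24 h) on a stable cell line; DMSO and CCCP controls. Endpoint: fixed-cell PINK1 immunofluorescence with mitochondrial, cell and nuclear markers, scanned by microplate cytometer.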
# TRPML1 agonist = qHTS for Agonists of the Human Mucolipin Transient Receptor Potential 1 (TRPML1); TRPML1-expressing cells, Ca2+ dye fluorescence, FDSS; host cell line not named in the record; reference of the full effect not given here; activation, % (test concentration not listed); hit rate 0.12% among 410,000; in the data active = activation above about 50%; inconclusive = about 30% to 50%; inactive = below about 30%; also: 0% is about no effect; the text of the record puts the active cut at 80%
#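 Cells: TRPML1-DL, 1X Tet inducer, ~16 h at 37 degrees C/5% CO2. Dye: ABD Ca8 no-wash + quencher, 45-90 min RT. Read: 10 s baseline, compound add, 110 s agonist phase; 54-4 EC80 (4uM final), 110 s antagonist phase.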
# Starred values were filed as active, the others as inactive; ? = inconclusive; . = not tested or not shown; & = joins results of further samples; [ ] = remark or other dose.
Structure	Six1-Eya2 inh	D2 ag	D2 PAM	TRPML1 blocker	PINK1 expr mod	TRPML1 agonist
O=C(O)CCCCCN1C(=O)/C(=C/c2cn(-c3ccccc3)nc2-c2cccs2)SC1=S	?	2.7	-5	4	3.5%	-0.5
Cc1ccc(S(=O)(=O)N/N=C/c2ccc(OC3CSC3)cc2)cc1	-7	3.1	-2	6	6.7%	15
COc1ccc(C2C(=O)N(C3CCCCC3)CC(=O)N2CCc2ccc(OC)c(OC)c2)cc1 (stereo unspecified)	.	.	.	4	-0.2%	-0.2
COc1ccc([C@H]2CC(=O)C=C(/C=C/c3ccccc3)C2)cc1	-8	-1.8	-3	40	0.6%	2.1
Cc1ccc(C(=O)N/C(=C\c2ccccc2F)c2nc(=S)[nH][nH]2)cc1	5	-6.5	-6	-4	7.4%	1.2
O=C(CC(NC(=O)c1ccccc1Cl)c1ccccc1)NCCc1ccc(Cl)cc1 (stereo unspecified)	0	-5.5	-15	8	14%	-0.4
COc1ccc(-c2c(C)n([O-])c(C)c(C)[n+]2=O)cc1OC	3	-1.5	-9	-15	-1.0%	0.6
CCOc1ccc(C(CC(=O)O)n2cnnn2)cc1OC (stereo unspecified)	3	-5.4	-9	-11	-0.9%	-0.1
CC(=O)c1cccc(-c2ccnc3c2CC(C(=O)Nc2cccnc2)O3)c1 (stereo unspecified)	-3	-1.0	-3	.	2.9%	-1.1
O=S(=O)(Nc1ccc2ccccc2n1)c1ccccc1	3	2.9	-9	-14	3.0%	-0.1
CC(NC(=O)c1ccc(OC2CCN(Cc3ccccn3)CC2)cc1)c1nccs1 (stereo unspecified)	1	1.6	-12	0	1.7%	0.0
O=C(NC(C(=O)c1ccccc1)N1CCOCC1)c1cccs1 (stereo unspecified)	-1	0.0	-4	4	24%[38.3 µM]	0.4
COc1ccc(-c2nnc(SCC(=O)NCc3ccco3)n2C)cc1	-1	-2.3	-7	10	3.2%[38.3 µM]	0.5
COc1ccc(-c2cc(C(F)(F)F)n3nc(C(=O)NCC45CC6CC(CC(C6)C4)C5)cc3n2)cc1	.	.	.	-18	2.4%	2.1
CC1CCCN(c2nc3nonc3nc2N2CCCC(C)C2)C1 (stereo unspecified)	-18	-1.7	-13	67	1.8%	0.4
CCOC(=O)c1sc(NC(=O)Nc2ccccc2F)nc1C	11	-0.2	4	-11	?	0.0
CC(C)CCNC(=O)CN(C(=O)CCC(=O)Nc1ccccn1)c1ccc2c(c1)OCCO2	5	-0.4	-24	2	1.6%	2.1
CC1CCc2ccccc2N1C(=N)N(C)C (stereo unspecified)	-11	-4.0	-7	1	2.6%	0.0
COc1ccccc1NC(=O)Cn1c(C)cc(=O)c2cccc(OC)c21	-23	3.4	-5	-11	5.5%	-0.6
COc1ccc(CCNC(=O)C(=O)NCCOc2ccccc2)cc1OC	6	3.2	-5	-9	-1.4%	0.0
O=C(Cc1cccs1)Nc1ccc(NC(=O)c2ccco2)cc1	-2	1.5	1	-11	4.2%[38.3 µM]	-0.3
CC(=O)C1(O)CCC2C3CCC4CC(=O)CCC4(C)C3C(=O)CC21C (stereo unspecified)	3	-0.2	-2	-21	-2.9%	0.0
O=C(NCc1cccnc1)c1cc2ccccc2oc1=O	4	0.7	-10	10	-1.0%[38.3 µM]	-0.1
CCOc1ccc2ccccc2c1C1NC(=S)N(C)C(C)=C1C(=O)OC (stereo unspecified)	3	-3.9	-3	-15	1.4%	1.6
CCN(CC)C1=CC2=CC(=C(C#N)C#N)CCC2CC1 (stereo unspecified)	20	2.7	-2	?	?	105*
Cc1onc(-c2c(F)cccc2Cl)c1C(=O)N1CCN(c2ncccn2)CC1	1	-7.1	-6	7	0.8%	0.3
CC(=O)c1cccc(NC(=O)C2=CC(c3ccc4c(c3)OCO4)=NS(=O)(=O)N2C)c1	-9	-2.4	-19	-10&-2	2.2%&-0.7%	0.8&0.4
Cc1ccccc1NC(=O)/C(C#N)=C/c1ccccc1C(F)(F)F	-1	6.2	?	-29	?	0.2
O=C(COC(=O)c1ccc(F)cc1F)c1ccc[nH]1	1	-1.6	-1	-5	-4.8%	0.5
COc1cccc(OC)c1C(=O)OCc1c(-c2ccccc2)ncc2ccccc12	4	0.7	-5	56	0.4%	2.1
CCOCc1nnc(NC(=O)c2cc(Cl)ccc2OC)s1	4	-3.3	-6	-3	1.0%	0.9
CC1CCN(CC(=O)Nc2ccc(S(=O)(=O)N3C(C)CCCC3C)cc2)CC1 (stereo unspecified)	1	-2.8	-8	-12	0.0%	-0.6
COC(=O)c1ccc(COc2ncnc3c(Cl)cc(Cl)cc23)o1	-5	-4.0	-11	19	-0.2%	-1.2
CC(C)CCN1C(=O)c2ccccc2C1c1nnnn1-c1ccc2c(c1)OCCO2 (stereo unspecified)	-1	.	.	.	0.6%	-0.2
Cc1ccc(OC2CCN(C(=O)C3CCC(=O)N(C4CC4)C3)CC2)cc1 (stereo unspecified)	2	0.4	-3	-11	-1.3%	1.3
CC(C)(C)C(=O)NC(Nc1cccc2cccnc12)C(Cl)(Cl)Cl (stereo unspecified)	-25	3.9	16	-1	6.9%	2.3

# Entries shown so far containing a furan ring, fused or not, in the order listed:
Structure	Six1-Eya2 inh	D2 ag	D2 PAM	TRPML1 blocker	PINK1 expr mod	TRPML1 agonist
COc1ccc(-c2nnc(SCC(=O)NCc3ccco3)n2C)cc1	-1	-2.3	-7	10	3.2%[38.3 µM]	0.5
O=C(Cc1cccs1)Nc1ccc(NC(=O)c2ccco2)cc1	-2	1.5	1	-11	4.2%[38.3 µM]	-0.3
COC(=O)c1ccc(COc2ncnc3c(Cl)cc(Cl)cc23)o1	-5	-4.0	-11	19	-0.2%	-1.2

# Later entries.
Structure	Six1-Eya2 inh	D2 ag	D2 PAM	TRPML1 blocker	PINK1 expr mod	TRPML1 agonist
Cc1cccc(CCNC(=O)c2cc3c(=O)n(C)c4ccccc4c3n2C)c1	.	.	.	5	0.0%	-0.7
CCOC(=O)C1C(=O)NC(N2CCN(c3ccccc3)CC2)=NC1c1ccccc1 (stereo unspecified)	-2	-2.1	-11	-10	-0.4%[38.3 µM]	-0.7
CCN(CC)C(=O)Cn1c(=O)n(Cc2ccc(C(=O)NCc3ccccc3Cl)cc2)c(=O)c2ccccc21	.	.	.	1	0.3%	1.9
CCCc1nc(SCC(=O)Nc2ccc(S(=O)(=O)N(C)C)cc2)c2ccccc2n1	3	5.0	-6	-10	?	1.9
O=C(c1cccc(S(=O)(=O)NCc2ccccc2)c1)N1CCCC(C(F)(F)F)C1 (stereo unspecified)	-3	-3.2	0	-12	2.1%	-0.9
C=CCOc1ccc(/C=N/NC(=O)C2CCCC2)cc1OCC	-18	-1.4	-25	0	0.2%	0.4
Cc1cc2nccc(-c3ccc(Cl)cc3Cl)n2n1	21	-1.5	-8	7	1.4%	0.2
CCCCC(=Nc1ccc(N)cc1)C1=C(O)C(C(=O)OC)C(C)(C)CC1=O (stereo unspecified)	-22	0.2	28	13	-2.6%	1.0
Cn1cc(-c2ccno2)c(C(=O)O)n1	10	-2.7	-1	16	0.8%	0.2
NC(=S)NN=C1c2cc(Cl)ccc2-c2c1cc(Cl)cc2[N+](=O)[O-]	-28	3.3	-4	6	?	0.3
CCn1c(-c2cc3ccccc3cc2O)n[nH]c1=S	-2	-2.7	7	2	-5.0%	-1.0
N#Cc1ccccc1OCC(=O)N(Cc1nnc(-c2ccccc2Cl)o1)C1CC1	-4	-1.3	1	-5	1.7%	-0.8
Cc1ccc(C2CC(=O)NC(SCC(=O)OCc3ccccc3)=C2C#N)o1 (stereo unspecified)	-22	-0.6	-18	-4	14%	2.1
COc1ccc(CNC(=O)c2ccccc2SCC(=O)NCc2ccco2)cc1	-2	5.3	4	8	1.1%	3.7
COc1cc(/C=N/Nc2ccc([N+](=O)[O-])cn2)cc(OC)c1O	-21	2.9	8	3	4.8%	-0.9
O=C(/C=C/c1ccc(F)cc1)NC(=S)Nc1ccccc1	-1	?	6	-16	11%	0.9
CN(NC(=O)Nc1ccc(Cl)cc1)c1ncc(C(F)(F)F)cc1Cl	2	-3.3	0	3	?	-0.1
COc1ccccc1/C=C/C=N/n1c(-c2cc(C)[nH]n2)n[nH]c1=S	4	-2.4	3	33	2.0%	2.4
Cc1cccc(N2CCN(C(=O)c3ccc4c(c3)NC(=O)C(CSCc3cccc(F)c3)N4)CC2C)c1 (stereo unspecified)	-3	-2.0	-17	-6	0.9%	0.0
COc1cc(/C=C/C(=O)OCC(=O)N2CC(C)OC(C)C2)ccc1OCC#N (stereo unspecified)	1	1.2	2	1	0.3%	-0.3
COc1ccc(CCNC(=O)c2ccccc2NC(=O)C2=C(C)OCCS2)c(OC)c1	-11	-3.5	1	20	-0.5%	2.2
CC/C(=N\NC(N)=O)c1ccc(OC)c(OC)c1	-5	-6.3	-14	-6	0.5%	-0.6
CC(C)(C)n1nc2c(c1NC(=O)COc1ccc(Cl)cc1)CSC2	-1	-3.0	-1	11	-1.0%[38.3 µM]	0.5
COc1ccc(C)cc1NC(=O)C(=O)NCCc1sc(-c2ccc(Cl)cc2)nc1C	.	.	.	-13	-0.1%	0.8
Cc1cc(S(=O)(=O)N(Cc2ccccn2)Cc2ccco2)ccc1-n1cnnn1	0	1.9	-5	-13	.	-0.2
CC1CCCCN1C(=S)Nc1ccc(OC(F)F)cc1 (stereo unspecified)	6	1.0	-16	7	-1.7%	0.7
Cc1cc2cc(C(c3nnnn3Cc3ccccc3)N3CCc4ccccc43)c(=O)[nH]c2cc1C (stereo unspecified)	-19	-2.7	-1	-15	?	-0.4
CCOc1ccc(CCN2C(=O)C(=O)N([C@@H](Cc3ccccc3)CN3CCC[C@H]3CN3C(=O)C(=O)NC[C@@H]3Cc3ccccc3)C[C@@H]2Cc2ccc(O)cc2)cc1	17	.	.	.	-0.6%	0.0
CC(C)(c1cc(Br)c(O)c(Br)c1)c1cc(Br)c(O)c(Br)c1	-1	-4.7	9	10	0.7%	0.3
CCC1CCC(C(=O)NC(C(=O)NCCc2ccc(S(N)(=O)=O)cc2)C(C)C)CC1 (stereo unspecified)	-5	-4.5	0	28	1.7%	0.1
